# NS1 function inh: qHTS Assay for Inhibitors of Influenza NS1 Protein Function. S. cerevisiae slowed by influenza A NS1, growth recovery by OD600. Potency, µM (top dose mostly 46.1 µM), for the others: top-dose activity, positive = more growth. 270,000 tested, 0.4% active; further: actives are rising curves; nearly all actives have a fitted effect of over 50% in size
#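 A cell-based growth assay was used: compounds that relieve NS1-induced slow growth of budding yeast raise OD600. Assay medium was yeast nitrogen base with ammonium sulphate and -URA supplement, pH 6.0, with 2% galactose.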
# SARS PLP yeast: qHTS of Yeast-based Assay for SARS-CoV PLP | 330,000 tested, 0.19% active | S. cerevisiae expressing SARS-CoV PLpro, growth rescue; control for the full effect not named in the record | Potency, µM (doses to about 32.9 µM), for the others: top-dose activity, positive = growth rescue | AID 485353, 2010; further: 0% is about no effect; nearly all actives have a fitted effect of over 55% in size; growth read by luminescence after 48 h
# RE007 growth inh: qHTS Assay for Inhibitors of the HIV-1 protein Vpr. Potency, µM (top dose mostly 92.2 µM), for the others: at the top dose activity change, negative = less growth. 360,000 tested, 0.21% active. S. pombe RE007 Vpr strain, BacTiter-Glo ATP luminescence, 24 h; control for the full effect not named in the record; active = well fitted falling curve with a large enough effect; inconclusive = small, poorly fitted or top-dose-only effect; inactive = no such curve, though single readings can be large or run the other way;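 further: on the % scale 0 is the no-effect control and ±100 the full control effect; nearly all actives have a fitted effect of over 50% in size; the assay follows cell death caused by Vpr and the record does not say whether a fall means rescue or toxicity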
#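 Fission yeast strain RE007, carrying one chromosomally integrated HIV-1 vpr copy, was seeded at OD 0.01 in PMG+AL medium with 23 nL pinned compound. After 24 h at 30 °C and 99% humidity, viability was read by BacTiter-Glo luminescence.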
# MARV entry inh: qHTS for inhibitors of binding or entry into cells for Marburg Virus; Marburg virus pseudotyped entry inhibition, cell reporter; control for the full effect not named in the record; about a third of the inactives were read at about 46 µM; Potency, µM (doses to about 37.8 µM), inactives show at the highest dose activity change, negative = inhibition, usual class: inhibitors; 300,000 tested, 1.8% active; active = well fitted inhibition curve with a large enough effect; inconclusive = small, poorly fitted or top-dose-only effect, or effect the other way; inactive = flat fitted curve, though single readings scatter; tested in HEK293 cells; about a fifth of its hits are not listed in these tables; further: on the % scale 0 is the no-effect control and ±100 the full control effect; luciferase read-out
# LASV entry inh: qHTS for Inhibitors of binding or entry into cells for Lassa Virus. Lassa virus pseudotype entry inhibition, cell reporter; control for the full effect not named in the record. Potency, µM (series often up to 37.9 µM), without a hit: top-dose activity change, negative = inhibition, actives largely listed as inhibitors. 300,000 tested, 1.2% active. AID 540256, 2011; active means well fitted inhibition curve with a large enough effect; inconclusive means small, poorly fitted or top-dose-only effect, or effect the other way; inactive means flat fitted curve, though single readings scatter; tested in HEK293 cells; further: on the % scale 0 is the no-effect control and ±100 the full control effect; nearly all actives have a fitted effect of over 50% in size; luciferase read-out
# 2A StopGo: High Throughput Screening for Foot and Mouth Disease Virus Antivirals; human cells with a luciferase reporter of 2A StopGo recoding; control for the full effect not named in the record; Potency, µM (highest dose often 57.9 µM), without a hit: at the top dose signal change, negative = less light; 410,000 tested, 1.2% active; AID 1159524, 2015; active = well fitted falling curve with a large enough effect; inconclusive = small, poorly fitted or top-dose-only effect; inactive = no such curve, though single readings can be large or run the other way; tested in HEK293T cells; further: on the % scale 0 is the no-effect control and ±100 the full control effect; nearly all actives have a fitted effect of over 45% in size; luciferase light after 4 h
# Cruzain inh noDet: qHTS Assay for Promiscuous and Specific Inhibitors of Cruzain (without detergent) | Cruzipain (Trypanosoma cruzi), P25779 | purified cruzain, Z-FR-AMC fluorescence, no detergent | Potency, µM, for the others: max response, negative = inhibition, most hits filed as inhibitors | 200,000 tested, 2.3% active | AID 1476, 2009; active means well fitted curve in the direction sought with a large enough effect; inconclusive means small, poorly fitted or top-dose-only effect, or another doubt; inactive means no such curve, though single readings can be large; an effect the other way counts as inactive or inconclusive;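 further: plate controls were enzyme without inhibitor for no effect and buffer without enzyme for full effect; nearly all actives have a fitted effect of over 40% in size; top concentration of the series not given in the record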
# Target sequence (P25779 123-467 limits assumed): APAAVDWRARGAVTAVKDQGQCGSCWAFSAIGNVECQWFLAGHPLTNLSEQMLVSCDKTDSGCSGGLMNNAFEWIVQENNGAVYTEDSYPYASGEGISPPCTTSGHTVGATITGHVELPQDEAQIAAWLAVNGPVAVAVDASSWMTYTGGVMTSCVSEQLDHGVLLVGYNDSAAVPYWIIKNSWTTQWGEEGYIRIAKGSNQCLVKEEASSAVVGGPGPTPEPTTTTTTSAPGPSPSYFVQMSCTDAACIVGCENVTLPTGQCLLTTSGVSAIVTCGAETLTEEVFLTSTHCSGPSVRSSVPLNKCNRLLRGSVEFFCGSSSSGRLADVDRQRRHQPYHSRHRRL
#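 Detergent-free condition (0.00005% Triton X-100) in acetate buffer pH 5.5 with DTT. 1.5 nM enzyme and compound were pre-mixed 15 min, then 2 uM Z-FR-AMC substrate added; reaction progress from fluorescence change between first and third reads (60 s).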
# Cruzain inh Det: qHTS Assay for Promiscuous and Specific Inhibitors of Cruzain (with detergent) | Cruzipain (Trypanosoma cruzi), P25779 | purified cruzain, Z-FR-AMC fluorescence, 0.01% Triton | Potency, µM, without a hit: max response, negative = inhibition, actives largely listed as inhibitors | 200,000 tested, 0.43% active; active means well fitted curve in the direction sought with a large enough effect; inconclusive means small, poorly fitted or top-dose-only effect, or another doubt; inactive means no such curve, though single readings can be large; an effect the other way counts as inactive or inconclusive;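 further: plate controls were neutral wells for no effect and buffer without enzyme for full effect; nearly all actives have a fitted effect of over 40% in size; top concentration of the series not given in the record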
#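 15 min RT preincubation of 1.5 nM cruzain with compound, then 2 uM Z-FR-AMC added; kinetic AMC fluorescence, 60 s delta. Triton X-100 0.01%, pH 5.5.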
# Starred values were filed as active, the others as inactive; ? = inconclusive; / = not tested or not shown; & = joins results of further samples; [ ] = another dose, or the depositor's remark. Unless noted, the call rests on the fitted dose curve; in most records, active means well fitted rising curve with a large enough effect; inconclusive means small, poorly fitted or top-dose-only effect; inactive means no such curve, though single readings can be large or run the other way. Potency means the concentration at half of the fitted maximal effect.
# Value order: NS1 function inh	SARS PLP yeast	RE007 growth inh	MARV entry inh	LASV entry inh	2A StopGo	Cruzain inh noDet	Cruzain inh Det
- C[C@H]1C=C(C(=O)NC2CC2)O[C@@H](OCc2ccc(CO)cc2)C1
  -4%	3%	7%	/	/	39%[activator]	/	/
- O=C(O)/C=C/C(=O)NCCc1cccc(Cl)c1
  4%	-3%	1%	-11%	5%	-2%	/	/
- C[N+]1(CC(=O)OC2CCCCCCCCCCC2)CCCC1
  /	0%	-15%	-2%[46.1 µM]	-19%	?	/	/
- CSc1cccc(NC(=O)C2CCN(C(=O)c3ccccc3C)CC2)c1
  -1%	11%	-7%	?	-15%	-20%	9%	-4.6%
- O=C(NC1CCCCC1)c1ccc(CSc2nc3ccncc3n2Cc2ccccc2F)cc1
  /	/	/	?	/	3%	2%	-7.8%
- COc1ccccc1NC(=O)c1nc[nH]c1C(=O)Nc1ccccc1OC
  26%	0%	-24%	?	?	6%	10µM*	4.8%
- O=C1OC(N2CCN(c3ccccn3)CC2)c2ccccc21 (configuration not stated)
  -13%	2%	0%	-14%[46.1 µM]	-1%	-1%	5%	1.6%
- CCN(CC)c1ccc(/C=C2\C(=O)c3ccc(C(=O)O)cc3C2=O)cc1
  -40%	-26%	-20%	?	21%	-15%	24%	-11%
- COCCNC(=O)c1onc(CSc2ccc(F)c(F)c2)c1C(=O)O
  7%	5%	-6%	/	/	-2%	3%	4.7%
- O=C(O)c1ccc(Sc2nnc3ccccn23)c([N+](=O)[O-])c1
  2%	0%	-4%	16%[46.1 µM]	9%	20%	/	/
- COc1ccc(CCNC(=O)c2ccc(CNS(=O)(=O)c3ccccc3)cc2)cc1OC
  9%	-3%	13%	-5%[46.1 µM]	?	-2%&-7%	1%&7%	-4.6%&-4.3%
- CCn1cc(C(=O)N2CCN(c3ccccc3)CC2)c(=O)c2cc(S(=O)(=O)N3CCOCC3)ccc21
  -8%	1%	0%	-1%&-1%[46.1 µM]	-14%[46.1 µM]	-2%&9%	30%	-6.8%
- CC12CC(NC(=O)N1c1cccc(C(=O)N3CCN(c4ccccn4)CC3)c1)c1ccccc1O2 (configuration not stated)
  -9%	0%	-16%	-9%	-7%	?	-9%	-8.2%
- C[N+](C)(C)CCNC(=O)c1cc[n+](Cc2ccccc2)c(/C=N/O)c1
  3%	1%	4%	/	/	-6%	/	/
- Cc1cc(C)c(C#N)c(Nc2cccc(Br)c2)n1
  -13%	-3%	-16%	-11%	-7%	-6%	/	/
- O=C1OC(N2CCN(C/C=C/c3ccccc3)CC2)c2ccccc21 (configuration not stated)
  8%	-6%	-8%	3%	6%	-25%	-2%	-0.4%
- O=C(COc1ccc2c3c(c(=O)oc2c1)CCC3)NCc1ccccn1
  2%	-2%	-6%	/	/	-9%	/	/
- O=c1ccc(-c2ccc(S(=O)(=O)N3CCCCC3)o2)n[nH]1
  -4%	1%	14%	/	/	4%	/	/
- CC(C)N(C)C1=CC(=O)C(N(C)C(C)C)=CC1=O
  /	/	-8%	?	20%[46.1 µM]	26%	/	/
- CC(=O)N1CCCc2cc(S(=O)(=O)N3CCCC(C(=O)NC(C)C)C3)ccc21 (configuration not stated)
  /	/	/	/	8%[46.1 µM]	-26%	-4%	0.8%

# The last six records of the section before come first, to join the parts.
# Value order: NS1 function inh	SARS PLP yeast	RE007 growth inh	MARV entry inh	LASV entry inh	2A StopGo	Cruzain inh noDet	Cruzain inh Det
- Cc1cc(C)c(C#N)c(Nc2cccc(Br)c2)n1
  -13%	-3%	-16%	-11%	-7%	-6%	/	/
- O=C1OC(N2CCN(C/C=C/c3ccccc3)CC2)c2ccccc21 (configuration not stated)
  8%	-6%	-8%	3%	6%	-25%	-2%	-0.4%
- O=C(COc1ccc2c3c(c(=O)oc2c1)CCC3)NCc1ccccn1
  2%	-2%	-6%	/	/	-9%	/	/
- O=c1ccc(-c2ccc(S(=O)(=O)N3CCCCC3)o2)n[nH]1
  -4%	1%	14%	/	/	4%	/	/
- CC(C)N(C)C1=CC(=O)C(N(C)C(C)C)=CC1=O
  /	/	-8%	?	20%[46.1 µM]	26%	/	/
- CC(=O)N1CCCc2cc(S(=O)(=O)N3CCCC(C(=O)NC(C)C)C3)ccc21 (configuration not stated)
  /	/	/	/	8%[46.1 µM]	-26%	-4%	0.8%
- Cn1c(=O)c2c(nc(CN3CCN(Cc4ccccc4)CC3)n2Cc2cccc(Cl)c2)n(C)c1=O
  -8%	-2%	1%	1%	/	?	-2%	2.3%
- CC(C(=O)NCC1(c2ccccc2)CCCC1)N1CCCC1 (configuration not stated)
  -14%	-2%	8%	-31%	1%	/	1%	0.2%
- CCOC(=O)C1CCN(C(=O)c2ccc(OCC(=O)Nc3cccc(C(F)(F)F)c3)cc2)CC1
  -29%	2%	-9%	-4%[46.1 µM]	11%	?	/	/
- CCCCN(CCCC)C(=O)c1cn(CC)c2cc(N3CCN(C)CC3)c(F)cc2c1=O
  6%	-1%	-11%	?	23%[46.1 µM]	-5%	/	/
- COc1cc(C(=O)OCC(=O)NCCC2=CCCCC2)cc(OC)c1OC
  /	5%	-14%	-13%	-5%	-2%	/	/
- Cc1cc(NC(=O)CSc2ncc(C(=O)Nc3ccc(Cl)cc3)c(=O)n2C)no1
  /	/	/	/	15%[46.1 µM]	5%	-1%	0.1%
- c1ccc(C(c2ccccc2)c2cccnc2)cc1
  /	/	0%	-9%[46.1 µM]	-7%[46.1 µM]	-29%	/	/
- CCOc1ccnc(OCC)c1Br
  ?	-16%	20%	?	-2%	-6%	-6%	3.5%
- COc1cc(CCC(=O)Nc2cc(Cl)ccc2N2CCN(C)CC2)cc(OC)c1OC
  -1%	8%	-6%	-24%	3%	5%	-3%	10%
- Clc1cccc(-n2ncc3c(NCCCN4CCOCC4)ncnc32)c1
  /	/	/	/	?	19%	-24%	-0.5%
- O=C(c1ccccc1Nc1ccc(SC(F)F)cc1)N1CCCCCC1
  -93%	-25%	6%	-5%	?	-22%	4%	-5.6%
- CN(C)CCNC(=O)C1CCN(S(=O)(=O)c2ccc3ccccc3c2)CC1
  -3%	-2%	-7%	?	-14%	9%	/	/
- CC(Sc1nc2cc(Cl)ccc2s1)C(=O)Nc1ccc2c(c1)OCO2 (configuration not stated)
  2%	-32%	2%	?	21%	41%[activator]	?	-9.2%
- COc1ccc(C2C3=C(CC(C)(C)CC3=O)Oc3ncn(CCCn4ccnc4)c(=N)c32)cc1 (configuration not stated)
  -2%	11%	-2%	?	-5%	-8%	9%	-3.2%
- CCn1c(=O)cc(N2CCC3(CC2)OCCO3)[nH]c1=O
  -13%	9%	5%	/	/	-1%	-8%	-0.5%
- NNC(=O)c1cc2ccccc2cc1NS(=O)(=O)c1ccccc1
  30%	-9%	-3%	8%	?	-4%	/	/
- CC(C)C(=O)NC(Nc1cccc2cccnc12)C(Cl)(Cl)Cl (configuration not stated)
  -5%	5%	-3%	-24%	11%	?	-3%	-0.6%
- O=C(Nc1nnc(-c2ccc(F)cc2)o1)c1cc(Cl)sc1Cl
  -49%	-52%	-27%	?	?	-21%	-18%	-0.2%
- COc1ccc(-c2c(C#N)c(SCC(=O)Nc3ccccc3C)nc(C)c2C(=O)Nc2ccccc2)cc1OC
  /	/	/	/	-17%[46.1 µM]	-16%	?	-7.9%
- O=C(Nc1cccnc1)Nc1cc(Cl)cc(Cl)c1
  -4%	-3%	-8%	-15%	1%	?	/	/

# New compounds follow:
# Value order: NS1 function inh	SARS PLP yeast	RE007 growth inh	MARV entry inh	LASV entry inh	2A StopGo	Cruzain inh noDet	Cruzain inh Det
- Nc1ccc(-c2nc(-c3ccccc3)nc3ccccc23)cc1
  13%	0%	13%	/	/	-18%	/	/
- O=C(O)c1cccc(NC(=O)c2ccccc2NC(=O)c2ccccc2F)c1
  ?	-2%	136%	?	2%[46.1 µM]	-26%	/	/
- CCN1C(=O)/C(=C\c2cccc(OC(=O)c3ccco3)c2)SC1=S
  0%	-3%	-12%	-2%[46.1 µM]	6%[46.1 µM]	24%	/	/
- O=C(NC1CC1)C(Cc1ccccc1)NS(=O)(=O)c1ccccc1F (configuration not stated)
  1%	1%	11%	?	?	2%	/	/
- CCSc1nc2c([nH]c3ccccc32)c(=O)n1-c1ccc(OC)cc1
  /	/	/	/	-9%[46.1 µM]	-5%	14%	0.3%
- CC(C)(C)C(=O)N1CCN(c2ccnc3cc(Cl)ccc23)CC1
  -4%	3%	-4%	/	/	?	/	/
- COc1cccc(NC(=O)CSc2nc(O)c(C)c(=O)n2-c2ccc(C)cc2)c1
  15%	3%	-3%	4%[46.1 µM]	13%	-9%	/	/
- COc1ccc(NC(=O)C2CCCN(S(=O)(=O)c3c(C)[nH]c(=O)[nH]c3=O)C2)cc1 (configuration not stated)
  3%	5%	0%	9%[46.1 µM]	?	15%	-1%&-3%	-1.9%&4.9%
- COc1ccc(C2C3=C(CCCC3=O)Nc3nc(SCc4ccccc4)nn32)cc1OC (configuration not stated)
  -39%	-11%	2%	-26%	-31%	-21%	?	-2.5%
- Cc1ccc(-c2nnn(CC(=O)Nc3ccc4nn(-c5ccccc5)nc4c3)n2)o1
  -13%	4%	14%	15%	-13%	7%	10µM*	-7.5%
- COc1ccc(C(=O)N2CCCCCCC2)cc1OC1CCN(C(C)C)CC1
  -4%	16%	15%	1%[46.1 µM]	-22%[46.1 µM]	-12%	/	/
- Cc1cccc(NC(=O)C(C)Oc2ccccc2C)n1 (configuration not stated)
  -64%	-5%	3%	-14%	-12%	-13%	-5%	0.9%
- O=C(O)C1[C@H]2C(=O)N(C3CCCC3)C[C@]23C=C[C@H]1O3 (some centres not stated)
  -3%	-1%	-1%	7%	5%	/	13%	2.6%

# Compound activity (PubChem BioAssay)
